Bioassay records deposited in PubChem by ICCB-Longwood Screening Facility, Harvard Medical School.
KSHV LANA nucl: LANA-nucleosome interaction inhibition | AID 720717 | 0.3% of 51,000 active | FITC-LANA1-23 / chicken nucleosome fluorescence polarization; active compounds read low | z-score (test concentration not listed);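 active = both repeat wells score below -2 in polarization z-score versus plate sample wells, excluding overly bright wells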;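 also: 100 nL library stock added to about 30 µL; numbers are from one replicate; some results filed as inactive read as strong as hits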
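Assay system: FITC-LANA peptide and chicken nucleosomes; input: 240 nM purified chicken nucleosomes (480 nM peptide binding sites), final; also added: 50 nM FITC-LANA1-23 probe; medium: TEN-BT buffer, pH 7.5; doses: pin-transferred compound, 100 nL; times: 10–45 min, room temperature; technique: fluorescence polarization; replication: duplicates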
BasE inh: blocks the Acinetobacter baumannii siderophore enzyme BasE. inhibition, % (concentration not given with the values). AID 485350. purified BasE, fluorescence polarization binding displacement. 0.1% of 84,000 active;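 active = both replicates above 25% with normal brightness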;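 also: 0% = negative plate control signal and 100% = positive plate control signal; stock transfer was 100 nL into about 30 µL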
The depositor's hits bear a star; / = not tested or not shown.

SMILES | KSHV LANA nucl | BasE inh
CCN1C(=S)SC(=O)C1=C1C=C(C)N(CCO)C(C)=C1 | / | -7.6
CCOC(=O)c1csc(NC(=O)Nc2cccc(OC)c2)n1 | 1.07 | 0.7
COc1ccccc1OCCNC(=O)c1coc2ccccc2c1=O | / | -2.3
CCn1c(SCC(=O)N(C)C2CCCCC2)nc2ccc(Br)cc2c1=O | / | 1.3
CC(OC(=O)CC1CC2CCC1C2)C(=O)Nc1ccc(N2CCOCC2)cc1 (stereo not given) | / | 5.2
N#Cc1ccc(COc2cccc[n+]2[O-])cc1 | / | 2.8
CC(C)NC(=O)c1c2c(nn1C)-c1ccccc1SC2 | 1.45 | -1.9
COc1ccccc1NC1=NC(c2ccc(Cl)cc2)N=C(N)N1 (stereo not given) | / | -2.0
O=C1c2ccccc2S(=O)(=O)N1CCSc1ncc(C(F)(F)F)cc1Cl | / | 1.2
CC1CN(/C(=N\S(=O)(=O)c2ccccc2)c2ccccc2)CC(C)O1 (stereo not given) | / | -0.8
CN(C)S(=O)(=O)c1ccc(=O)n(C(C(=O)NC2CC2)c2ccccc2)c1 (stereo not given) | / | 0.5
O=C(COC(=O)c1ccc2c(=O)n3c(nc2c1)CCCCC3)NCC1CCCCC1 | / | -0.7
CC(C)CC(=O)Nc1ccc(C(=O)CN2CCN(c3ccc(O)cc3)CC2)cc1 | / | 4.3
O=C(O)CCCC(=O)Nc1ccccc1SCc1noc(-c2cccs2)n1 | / | 0.5
COc1ccc(Nc2nc(N)nc(CN3CC(C)CC(C)C3)n2)cc1 (stereo not given) | 0.0145 | -0.7
COc1ccc(CN(Cc2cc(OC)c(OC)c(OC)c2)C(=O)C(C)(C)C)cc1 | / | 2.6
O=C(COc1ncnc2sccc12)N1CCCCC1 | / | 1.5
COc1ccc(CC(=O)Nc2ccc(O)c(-c3nc4ccccc4o3)c2)cc1 | / | 0.7
N#Cc1ccc(-c2ccc3c(c2)OCCO3)[nH]c1=S | / | 1.6
CC1CN(C(=O)C(C)OC(=O)c2ccc(-c3ccccc3)cc2)CC(C)O1 (stereo not given) | / | -1.1
CC(NC(=O)Nc1cccc(Cl)c1Cl)c1ccc2c(c1)OCO2 (stereo not given) | 0.231 | -0.3
Cc1ccc(/C=N/NC(=O)CCc2c(C)n[nH]c2C)cc1 | 0.296 | 0.8
CCCn1c2c(c(=O)[nH]c1=O)C(=O)C(C)N2 (stereo not given) | / | 1.0
O=C(CSc1ccc(Cl)cc1)c1cccs1 | / | -1.9

Given as comma-separated lines: part of the list above
SMILES,KSHV LANA nucl,BasE inh
CCCn1c2c(c(=O)[nH]c1=O)C(=O)C(C)N2 (stereo not given),/,1.0
CC1CN(C(=O)C(C)OC(=O)c2ccc(-c3ccccc3)cc2)CC(C)O1 (stereo not given),/,-1.1

The list goes on:
SMILES | KSHV LANA nucl | BasE inh
COc1cc2c(C#N)c(N(C)CCc3ccc(OC)c(OC)c3)nc(N)c2c(N)n1 | / | -0.8
Cc1ccc(NC(=O)CN(C)C(=O)CSc2nc(C)cs2)cc1 | / | -2.1
CCC1SC(=NC(=O)c2cccs2)NC1=O (stereo not given) | 0.561 | 1.1
O=C(CSc1ccccn1)NCc1ccc2c(c1)OCO2 | 0.047 | 3.8
O=C(NCc1ccncc1)C12CC3CC(CC(C3)C1)C2 | / | 2.4
CC(C)OC(=O)CSc1nc(N)c(C#N)cc1C#N | 0.378 | 1.5
Cc1c(C(=O)O)[nH]c2c1/C(=N/N1CC(=O)NC1=O)CC(C)(C)C2 | / | 2.9
CCN(CC(=O)NCc1ccc2c(c1)OCO2)S(=O)(=O)c1ccc(F)cc1 | -0.98 | 2.5
Cc1cccc(-c2noc(CN(C(=O)c3ccc(Br)o3)C(C)C)n2)c1 | 0.136 | 0.9
COc1ccc2nc(Cl)c(C#N)cc2c1 | -0.735 | 1.5
Cc1cc(C)nc(NCCC(=O)O)n1 | -0.859 | 1.9
O=c1ccc(-c2ccc(S(=O)(=O)Nc3ccccc3)s2)n[nH]1 | / | -0.3
COC(=O)C(CC(C)C)NC(=O)c1cc(-c2ccccc2)nc2ccccc12 (stereo not given) | / | 1.8
O=C(O)CCN1C(=O)/C(=C\c2ccccc2)SC1=S | -0.559 | 1.8
Cc1cc(NC(=O)CSCC(=O)N2CCN(c3ccccc3)CC2)no1 | / | -1.4
C=CCSc1nc(O)c(CC)c(=O)n1-c1ccccc1 | -1.81 | 0.4
O=C(COc1ccccc1F)NCCc1ccc2c(c1)OCCO2 | / | 3.3
O=C1C(Sc2ncn[nH]2)=C/C(=N/S(=O)(=O)c2ccc(F)cc2)c2ccccc21 | -0.321 | 26.0
CN(C)c1ccc(C2=CC(C3CC3)=C(C#N)C(=C(C#N)C#N)N2)cc1 | -0.182 | 1.4
N#CCCn1cc(C(=O)CSc2nnc(-c3ccccc3Cl)n2C2CCCC2)c2ccccc21 | / | -0.3
COc1cc(OC)c(NC(=O)Cn2ncc3c(=O)oc4ccc(C)cc4c32)cc1Cl | -0.235 | 2.7
CCCNC(=O)CN=C1NS(=O)(=O)C(c2ccc(C)cc2)=C1CC | 0.855 | -0.7
CCCCn1c(SCC(=O)OC)nc2ccccc2c1=O | -0.947 | 0.4
COc1cccc(C(=O)Nc2ccccc2Cl)c1 | 0.203 | -4.5
O=C(NNc1ccccc1C(F)(F)F)c1cccs1 | 0.416 | -1.7
CN(C)C(=O)COC(=O)c1ccc(-c2ccc(C(=O)OCC(=O)N(C)C)s2)s1 | / | -0.4
CC1=CC(C)C(C2OC(C)C(C)O2)C(C)C1 (stereo not given) | -0.605 | 1.8
Cc1ccc(N=C2SC(C(=O)Nc3cccc(C#N)c3)C(N)=C2C(=O)N2CCCC2)c(C)c1 (stereo not given) | / | -1.4
c1ccc(-c2nnc(N3CCCC3)nc2-c2ccccc2)cc1 | 2.36 | /
O=C1Nc2ccccc2C(=O)C1=Ic1ccccc1 | / | 4.2
Cc1cc(C(=O)CCC(=O)O)ccc1F | 0.94 | 2.7
COC(=O)Cn1cc(C(=O)OC)c2ccccc21 | 0.374 | 1.5
CC(=O)N1CC(=O)N/C(=C\c2cccnc2)C1=O | 0.165 | 1.4
CCOC(=O)Cn1c(=O)c(-c2nc(C(C)(C)C)cs2)cn(C(C)C)c1=O | -0.452 | 1.2
O=C1OCCC1Sc1nc2ccccc2[nH]1 (stereo not given) | / | -0.2
Cc1onc(-c2ccccc2Cl)c1C(=O)N1CCN=C1SCc1ccccc1F | -1.03 | 2.3
Cn1c2ccccc2c2c(C(=O)NCc3ccco3)cn(C3CCCCC3)c(=O)c21 | 0.227 | 0.1
Nc1ccc(NS(=O)(=O)c2ccccc2)cc1 | / | 0.7
COC(=O)C(CC(C)C)NC(=O)c1ccc(OC(C)=O)cc1 (stereo not given) | 0.288 | -0.6
O=C(O)CSc1nnc2c(n1)[nH]c1ccccc12 | 0.0805 | -0.9
O=C(/C=C/Nc1ccccc1F)c1cccs1 | 0.082 | 1.1
CCOc1cc(C)c(Cl)cc1S(=O)(=O)n1nnc2ccccc21 | 0.977 | -1.9
Cc1ccccc1-c1nnc(SC(C)C)o1 | / | 0.2
CCOc1ccc(OCc2ccc(C(=O)NCc3cccnc3)o2)cc1 | 0.062 | -1.8
O=C(CN1CC(=O)Nc2ccccc21)Nc1ccc(S(=O)(=O)N2CCCC2)cc1 | / | 0.5
O=C(NCc1ccco1)c1ccc(CSc2nc3ccncc3n2Cc2ccccc2)cc1 | -0.299 | -1.0
Cc1ccccc1NC(=O)Cn1c(=O)n(C2CCCCC2)c(=O)c2cccnc21 | -1.71 | 1.8
S=C(NCCN1CCOCC1)Nc1ccc(Cl)cc1 | / | 1.1
CCN1CCCC1CNC(=O)c1ccccc1Oc1ccccc1 (stereo not given) | / | 1.0
Nc1nc2c3ccccc3nc(C3CC3)n2n1 | -0.514 | 0.8
NNC(=O)c1cc(COc2c(Cl)cccc2Cl)on1 | / | 0.3
COc1ccc(NC(=S)NCC2CCCO2)cc1 (stereo not given) | / | 2.0
N#Cc1cc2ccc(O)cc2oc1=N | -7.87 | -1.2
COc1ccc(CN2C(=O)c3cccnc3C2=O)cc1S(=O)(=O)NCc1ccc(C)cc1 | / | 1.7
Cc1ccc(-c2onc3ccc(C(=O)O)cc23)cc1 | 1.33 | -1.3
Cc1ccccc1NC(=O)c1[nH]cnc1C(=O)NN | 0.0305 | 2.3
CCC1=C(c2ccc(C)cc2)S(=O)(=O)N=C1N1CCC(C(=O)NC2CC2)CC1 | 0.087 | -0.7
O=C(CCc1nc2cccnc2n1Cc1cccs1)Nc1ccc2c(c1)OCCO2 | 0.731 | -3.2
CCOc1ccc2oc(=O)cc(CN(C)Cc3ccccc3)c2c1 | -0.177 | 4.3
CC(C)(C)c1ccc(NC(=O)c2ccc(C(C)(C)C)s2)cc1 | / | 2.2

(continued)
SMILES | KSHV LANA nucl | BasE inh
Cc1ccc(OCC(=O)NN)cc1 | 0.119 | 3.3
O=C(COC(=O)c1ccc(Cl)cc1NC(=O)c1ccc(Cl)cc1)c1ccccc1 | / | 3.1
COc1ccc(CC(N)C(=O)N[C@@H]2C(O)[C@H](n3cnc4c(N(C)C)ncnc43)O[C@@H]2CO)cc1 (stereo not given in full) | 0.29 | -1.4
Cn1cccc1C(=O)OCC(=O)C12CC3CC(CC(C3)C1)C2 | / | -0.4
Oc1[nH]c2ccccc2c1C=Nc1cccc(Cl)c1 | / | 0.6
Cc1ccc(S(=O)(=O)c2c(C)cc(C)[nH]c2=O)cc1 | -1.1 | /
CCCCC(C(N)=O)C1=NC(C)(C)Cc2ccccc21 (stereo not given) | / | 2.0
COc1cc2c3c(c1OC)C1(C=CC(=O)C=C1)CC3NCC2 (stereo not given) | 0.0615 | -32.0
N#Cc1cc(-c2ccccc2)c[nH]c1=O | 0.278 | /
CCCNC(=O)c1ccc(CN2CC(=O)N3CCCCC3C2=O)cc1 (stereo not given) | -0.604 | -0.2
O=C(Cn1ccn(-c2cccc3ccccc23)c(=O)c1=O)NCc1ccco1 | -1.59 | 0.9
CC12CCC(c3c(COC(=O)c4ccco4)nn(-c4ccccc4)c31)C2(C)C (stereo not given) | / | -0.9
O=C(CN1C(=O)C2C3C=CC(C3)C2C1=O)NCCc1ccccc1 (stereo not given) | -0.457 | -0.9
CN1CCN(CCSc2ccc(Cl)cc2)CC1 | / | -0.7
O=C(c1ccc2nc3ccc(Cl)cc3c(=O)n2c1)N1CCCCCC1 | -0.713 | 1.2
CCOC(=O)c1c(Nc2nc(-c3cc4ccccc4o3)cs2)sc(C)c1C | / | -1.4
CCN1C(=O)/C(=C2\SC(=S)N(C(C)C)C2=O)c2ccccc21 | -0.52 | 4.3
O=C(NC1=NN(c2ccccc2)CC1)Nc1ccccc1F | / | 2.2
COc1ccc(C2C(C(=O)N3CCN(c4ccc(F)cc4)CC3)CCC(=O)N2c2ccc(OC)cc2)cc1 (stereo not given) | 0.293 | 1.3
Cc1noc(C)c1CCNC(=O)C1CCN(c2ccccc2)C1=O (stereo not given) | 0.001 | 2.0
Cc1ccccc1C(=O)NNC1=NCCC1 | / | -2.2
CCOC(=O)Cn1c2[n+](c3ccccc31)CC(O)CS2 (stereo not given) | -0.434 | -0.1
CC(C)CCNC(=O)C1c2ccccc2Oc2ccccc21 | / | 2.8
Cc1cc(-n2c(C)cc(CNC(C)c3cccs3)c2C)no1 (stereo not given) | / | -2.3

Not a retest: 15 of the compounds above.
SMILES | KSHV LANA nucl | BasE inh
CCCCC(C(N)=O)C1=NC(C)(C)Cc2ccccc21 (stereo not given) | / | 2.0
COc1cc2c3c(c1OC)C1(C=CC(=O)C=C1)CC3NCC2 (stereo not given) | 0.0615 | -32.0
N#Cc1cc(-c2ccccc2)c[nH]c1=O | 0.278 | /
CCCNC(=O)c1ccc(CN2CC(=O)N3CCCCC3C2=O)cc1 (stereo not given) | -0.604 | -0.2
O=C(Cn1ccn(-c2cccc3ccccc23)c(=O)c1=O)NCc1ccco1 | -1.59 | 0.9
CC12CCC(c3c(COC(=O)c4ccco4)nn(-c4ccccc4)c31)C2(C)C (stereo not given) | / | -0.9
O=C(CN1C(=O)C2C3C=CC(C3)C2C1=O)NCCc1ccccc1 (stereo not given) | -0.457 | -0.9
CN1CCN(CCSc2ccc(Cl)cc2)CC1 | / | -0.7
O=C(c1ccc2nc3ccc(Cl)cc3c(=O)n2c1)N1CCCCCC1 | -0.713 | 1.2
CCOC(=O)c1c(Nc2nc(-c3cc4ccccc4o3)cs2)sc(C)c1C | / | -1.4
CCN1C(=O)/C(=C2\SC(=S)N(C(C)C)C2=O)c2ccccc21 | -0.52 | 4.3
O=C(NC1=NN(c2ccccc2)CC1)Nc1ccccc1F | / | 2.2
COc1ccc(C2C(C(=O)N3CCN(c4ccc(F)cc4)CC3)CCC(=O)N2c2ccc(OC)cc2)cc1 (stereo not given) | 0.293 | 1.3
Cc1noc(C)c1CCNC(=O)C1CCN(c2ccccc2)C1=O (stereo not given) | 0.001 | 2.0
Cc1ccccc1C(=O)NNC1=NCCC1 | / | -2.2

More entries
SMILES | KSHV LANA nucl | BasE inh
N#CC(c1cccc(C(F)(F)F)c1)c1cccc(C(F)(F)F)c1 | / | 2.4
Cc1cccc(OCC(O)CN2CC3(C)CC2CC(C)(C)C3)c1 (stereo not given) | / | -4.4
CC1CC(C)CN(C(=O)CCNS(=O)(=O)c2ccc3[nH]c(=O)ccc3c2)C1 (stereo not given) | -0.217 | -0.9
COc1ccc(/C=C(/Sc2n[nH]c(C)n2)C(=O)O)cc1OC | / | -1.1
Cc1cc(F)ccc1S(=O)(=O)Nc1ccc2oc(C)c(C(=O)OC(C)C)c2c1 | 0.646 | 2.3
Cn1c(-c2ccc3c(c2)OCO3)cc(=O)c2ccccc21 | 0.378 | -1.0
O=C1NC2=C(C(=O)NNC2)C(c2cccs2)N1 (stereo not given) | / | -1.4

An excerpt. The share of hits here may be higher or lower than overall.
